Compound activity as filed in PubChem BioAssay.
UCH37 DUB inh: blocks the human deubiquitinase UCH37. Q9Y5K5. 330,000 compounds, 0.33% hits. purified proteasome/UCH37, Ub-AMC cleavage fluorescence. inhibition, % (test concentration not listed);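 active = mean of two replicates above 20%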;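 note: 0% = compound-free wells with enzyme and 100% = wells lacking proteasome; stock transfer was 100 nL into about 20 µL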
Target sequence (Q9Y5K5 whole entry, looked up): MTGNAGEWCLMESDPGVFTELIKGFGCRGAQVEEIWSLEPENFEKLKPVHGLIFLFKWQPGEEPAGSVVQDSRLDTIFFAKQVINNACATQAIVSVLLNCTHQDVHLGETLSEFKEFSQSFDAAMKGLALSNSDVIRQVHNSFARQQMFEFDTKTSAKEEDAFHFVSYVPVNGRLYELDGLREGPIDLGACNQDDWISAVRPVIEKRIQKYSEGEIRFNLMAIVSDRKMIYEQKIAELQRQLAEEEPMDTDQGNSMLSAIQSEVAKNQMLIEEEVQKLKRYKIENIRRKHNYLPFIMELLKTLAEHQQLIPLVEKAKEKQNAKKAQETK
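system = Proteasome-associated human UCH37 deubiquitinase | amount = 0.15 nM proteasome as dispensed | medium = pH 7.4 Tris-HCl (50 mM) with ovalbumin, ATP-MgCl2, DTT | incubation = 30 min preincubation with enzyme, 25 min cleavage at room temperature | detection = AMC fluorescence 355/460 nm | read-out basis = percent inhibition | controls = no-proteasome and no-compound wells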
Vif TR-FRET: inhibitors of Vif binding to APOBEC3G peptide, primary screen, biochemical, TR-FRET, GST-Vif 1-94, biotin-A3G peptide, dose response retest (AID 1117319); TR-FRET GST-Vif / biotin-A3G peptide binding; higher % means a stronger effect; test concentration not given here; strong numbers were not always called active; inhibition, %; hits with a dose series show IC50 in µM; 260,000 compounds, 0.57% hits;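 active = above the screen mean plus three standard deviations and confirmed in dose response; inconclusive = results disagree or hit not tested in dose response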;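 note: Vif residues 1-94 fused to GST binding biotinylated APOBEC3G peptide 110-148; 0% = full assay without inhibitor and 100% = GST in place of GST-Vif; retest series ran down from 100 µM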
LANA-H2A inh: blocks KSHV LANA binding to histone H2A/H2B; 320,000 compounds, 0.6% hits; AID 2629; cell-free LANA-H2A/H2B peptide, fluorescence polarization; Q9QR71; inhibition, % (no concentration beside the values); in the data active = inhibition mostly above about 10%, no sharp cut-off; inactive = mostly below about 6.7%;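 note: stock transfer was 7.5 nL into about 10 µL; 0% = median of vehicle wells and 100% = median of positive control wells; one replicate is shown; the record names a cut of 25% in any replicate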
A1 inh: inhibitors of the anti-apoptotic protein A1, read as caspase activation; MEF A1-2A-BIM cells, Caspase-Glo 3/7 luminescence, 3 h; percent of clofoctol response, vehicle zero; caspase activation, % (concentration not given with the values); 330,000 compounds, 0.066% hits; AID 2462;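 active = over half of replicate activation scores above 10%, or exactly half above 10 with the replicate mean above 10; inconclusive = replicate mean below 10 yet half the replicates above 10; inactive = over half of replicates below 10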;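 note: wells of about 30 µL received 50 nL stock; many hits fall short of the cut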
E coli growth: blocks Escherichia coli growth; OD600, 23 h; hits give low values; OD600 absorbance (no concentration beside the values); 330,000 compounds, 0.21% hits;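 active = OD600 absorbance below the run mean of sample wells minus 3.6 SD, in any replicate, cut at about 0.56 in these data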;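 note: stock transfer was 300 nL into about 60 µL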
Beta2AR agonist: agonists of human beta-2 adrenergic receptor inducing internalization. P07550. Am2.2-beta2AR cells, FAP receptor internalization, flow cytometry; reference of the scale not given here. response, % (concentration not given with the values). 340,000 compounds, 0.43% hits;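 active = response above a set limit, near 3 SD of response in nonfluorescent compounds, cut at about 42% in these data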;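 note: stock transfer was 100 nL into about 11 µL; a reference agonist was the positive control; negative values mostly stem from fluorescent compounds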
Target sequence (P07550 whole entry, looked up): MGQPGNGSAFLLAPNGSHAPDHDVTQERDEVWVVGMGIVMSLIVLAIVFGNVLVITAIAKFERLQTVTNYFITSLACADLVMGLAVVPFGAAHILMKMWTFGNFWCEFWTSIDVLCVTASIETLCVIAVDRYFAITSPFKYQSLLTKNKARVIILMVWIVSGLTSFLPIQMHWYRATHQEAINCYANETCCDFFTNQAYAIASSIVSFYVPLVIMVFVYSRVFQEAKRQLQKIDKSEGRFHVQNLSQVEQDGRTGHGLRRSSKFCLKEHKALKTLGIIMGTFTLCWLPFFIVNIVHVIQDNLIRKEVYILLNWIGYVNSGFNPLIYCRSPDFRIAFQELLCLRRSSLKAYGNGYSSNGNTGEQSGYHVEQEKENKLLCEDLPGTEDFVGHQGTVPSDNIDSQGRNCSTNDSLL
HNF4A DNA FP: change in binding of human HNF4 alpha to DNA | HNF4a-FITC DNA binding, fluorescence polarization, 1 h | activity change, % at 10 µM | 360,000 compounds, 0.3% hits | AID 1224865; in the data active = activity change above about 30%, passing the limit was not always enough;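 note: controls were the assay level and a saturating level of protein; the project sought stronger binding though the title names inhibitors; some compounds called inactive have numbers as strong as hits; positive values seem to mean higher polarization but the record does not say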
An asterisk follows results filed as active; ? = inconclusive; · = not tested or not shown; & = joins results of further samples.

SMILES	UCH37 DUB inh	Vif TR-FRET	LANA-H2A inh	A1 inh	E coli growth	Beta2AR agonist	HNF4A DNA FP
Cc1ccc(P(=O)(CSC(=N)N)c2ccc(C)cc2)cc1	2.4	-5%	-4.8	-0.1	0.7	-8	3.3
CCCCn1c(N)c(N(CCOC)C(=O)CSCc2ccc(Cl)c(Cl)c2)c(=O)[nH]c1=O	0.5	0%	1.1	-0.4	0.68	-2	4.6
COc1ccc(Cl)cc1NC(=O)CNc1ccccc1N1CCOCC1	-2.0	4%	-2.6	-0.2	0.69	-1	-0.4
O=C(Cn1nc(C(F)(F)F)cc1C1CC1)Nc1ccccc1F	2.7	5%	-0.6	1.2	0.72	7	0.4
S=C(NCCCc1ccccc1)NC1CCCCC1	-2.5	·	-2.0	1.0	0.71	-14	-1.8
O=C1c2ccccc2-c2c1cccc2C(=O)N1CCOCC1	-0.5	1%	7.3	2.5	0.67	4	-3.2
O=C(O)c1cc(S(=O)(=O)N2CCN(C(c3ccccc3)c3ccccc3)CC2)ccc1Cl	5.4	-1%	-5.1	0.6	0.66	-1	-2.6
O=C(CCN1C(=O)C2C3C=CC(C3)C2C1=O)Nc1ccccn1 (stereo unspecified)	3.7	12%	0.0	-0.5	0.71	-1	1.7
CCC1CCc2sc(C(=O)NNC(=S)NCC3CCCO3)cc2C1 (stereo unspecified)	-5.5	5%	-5.2	-0.5	0.61	-1	0.6
CCCCOc1ccc(C(=O)NCC(=O)NC(C)CCc2ccccc2)cc1 (stereo unspecified)	0.8	·	-3.4	-1.6	0.74	-7	-2.8
O=C(c1ccc(S(=O)(=O)Nc2ccccc2F)cc1)N1CCC1	1.1	6%	-0.6	-0.5	0.69	-5	1.3
COc1cccc(NS(=O)(=O)c2cc3c4c(c2)CCC(=O)N4CCC3)c1	4.0	-6%	3.4	-0.4	0.7	5	-0.5
CSc1ccc(CN2CCCCCC2)cc1	1.0	·	5.9	0.3	0.65	-3	2.4
Nc1ccn(-c2ncc(C(F)(F)F)cc2Cl)c(=O)n1	-11	-6%	2.6	0.7	0.69	-3	14
C=CCOC(=O)c1ccccc1C(=O)OCC=C	1.9	·	·	·	0.7	14	-3.1
COc1cc(C(=O)OCCc2cc3ccccc3c(=O)o2)cc(OC)c1OC	-0.4	·	4.4	0.4	0.69	-9	2.1
CC1(OC(=O)CCc2ccccc2)C(=O)C=C2C=C(c3ccc(C#N)cc3)N(Cc3ccccc3)C=C2C1=O (stereo unspecified)	2.0	·	0.8	0.4	0.69	-2	6.5
COc1ccc(S(=O)(=O)N2CCC(NC(=O)OCc3c(Cl)cccc3Cl)CC2)cc1	1.8	75%	2.5	0.0	0.69	-2	0.2
CCCS(=O)(=O)N1CCCC(C(=O)NCCN2CCOCC2)C1 (stereo unspecified)	-3.4	10%	-0.4	2.2	0.74	2	-4.0
O=C(CN1C(=O)c2cccnc2Oc2ccc(Cl)cc21)NC1CCCCC1	5.8	-3%	1.4	-0.5	0.72	-1	-1.4
Cc1ccc(N(C(=O)Cn2nnc3ccccc32)C(C(=O)NCc2ccco2)c2cccnc2)cc1 (stereo unspecified)	5.6	29%&-7%	1.1	-0.2	0.78	-1	-1.1
O=C(NCCc1ccc2c(c1)OCCO2)c1ccccn1	2.7	·	3.8	-1.8	0.7	8	1.6
Cn1cccc1C(=O)Nc1ccc(N2CCOCC2)cc1	1.4	·	6.5	-11	0.67	4	-1.8
COc1ccc(NCN2C(=O)C3C4C=CC(C4)C3C2=O)cc1 (stereo unspecified)	1.6	2%	-2.7	-0.2	0.68	5	1.4
COc1ccc(-n2cnnc2SCC(=O)Nc2cccc([N+](=O)[O-])c2)cc1	-0.2	7%	6.8	0.7	0.69	1	-3.1
O=S1(=O)NC(=NCc2ccco2)c2ccccc21	1.7	-7%	-1.3	0.2	0.69	8	2.1
CCCC(=NCC(=O)O)C1=C(O)C(C(=O)OC)C(C)(C)CC1=O (stereo unspecified)	-3.1	22%	7.7	0.1	0.73	-2	1.1
Cc1ccccc1-n1c(Cn2c(=O)sc3ccccc32)nnc1SCC(=O)NCC1CCCO1 (stereo unspecified)	0.4	11%	2.9	0.6	0.74	-9	0.6
Cc1ccc2c(c1)-c1ccccc1S(=O)(=O)N2	-101	-11%	-2.4	0.1	0.66	-10	-2.1
Cc1nc2cc(NC(=O)N3CC4(C)CC3CC(C)(C)C4)ccc2n1C (stereo unspecified)	0.0	-1%	0.7	0.3	0.63	-9	0.7
CCO[C@H]1OC(C(N)=O)=C[C@@H](C)[C@@H]1CCCO	2.2	5%	-1.4	0.1	·	4	-0.3
COc1ccc(CNCc2cc(Cl)ccc2O)cc1	0.2	·	-5.1	0.7	0.69	7	2.0
COc1ccccc1N1CCN(C(=O)CN2C(=O)C3CCCCC3C2=O)CC1 (stereo unspecified)	-4.6	?	0.6	0.1	0.61	1	5.0
CCOC(=O)N1CCN(S(=O)(=O)c2ccc(OC)c3ccccc23)CC1	0.8	12%	-1.7	0.6	0.69	-7	-1.3
O=c1[nH]c2cc3c(cc2cc1CN(Cc1ccco1)C(=S)NCC1CCCO1)OCCO3 (stereo unspecified)	-85	-6%	-0.7	-0.1	0.68	-5	2.1
O=C(CCc1ccccc1)NNC(=O)c1ccccc1C(=O)O	2.1	8%	4.0	-0.4	·	-5	1.3

Some of these compounds in order of heavy-atom count, lowest first.
SMILES	UCH37 DUB inh	Vif TR-FRET	LANA-H2A inh	A1 inh	E coli growth	Beta2AR agonist	HNF4A DNA FP
CCOC(=O)N1CCN(S(=O)(=O)c2ccc(OC)c3ccccc23)CC1	0.8	12%	-1.7	0.6	0.69	-7	-1.3
O=c1[nH]c2cc3c(cc2cc1CN(Cc1ccco1)C(=S)NCC1CCCO1)OCCO3 (stereo unspecified)	-85	-6%	-0.7	-0.1	0.68	-5	2.1
Cc1ccccc1-n1c(Cn2c(=O)sc3ccccc32)nnc1SCC(=O)NCC1CCCO1 (stereo unspecified)	0.4	11%	2.9	0.6	0.74	-9	0.6

(cont.)
SMILES	UCH37 DUB inh	Vif TR-FRET	LANA-H2A inh	A1 inh	E coli growth	Beta2AR agonist	HNF4A DNA FP
CCOc1ccc(C(C)=O)cc1COC(=O)CN1C(=O)NC2(CCCC2)C1=O	1.6	5%	-3.5	0.2	0.71	-11	3.1
CS(=O)(=O)N(CC(=O)NC1CC1)C1CCCCC1	2.0	-10%	1.9	-0.1	0.65	2	2.4
CC(C)c1ccc(N(CC(=O)O)S(=O)(=O)c2cccnc2)cc1	0.9	-1%	-3.3	0.6	0.73	7	0.9
Cc1ccc(C2CC(c3ccc(C)cc3)n3nc(N)nc3N2)cc1 (stereo unspecified)	-1.4	6%	-4.5	0.6	0.77	8	1.1
CN(C)S(=O)(=O)c1cccc(NC(=O)CN(CCO)CC(=O)Nc2cccc(S(=O)(=O)N(C)C)c2)c1	3.0	-8%	-3.2	-0.2	0.68	-2	2.1
Cc1nc2cc3ccccc3cc2s1	1.4	3%	·	·	0.68	1	2.4
COc1cccc(/C=N/n2c(-c3cc(C)[nH]n3)n[nH]c2=S)c1O	·	-10%	3.1	1.1	·	14	0.2
O=C(Nc1ccc2nsnc2c1)N1CCCCCC1	-40	21%	1.1	0.6	0.72	3	-2.1
COC(=O)c1cccc(C(=O)Nc2cnc3ccccc3c2)n1	-10	-2%	-3.2	-4.5	0.74	2	1.9
O=C(O)c1cn(-c2ccc(N3CCCC3)c(F)c2)c2c(F)c(F)c(F)cc2c1=O	-4.2	?	3.9	-0.6	0.46*	1	-13
CCC(C)Sc1ccc(-c2nc3ccc(C)cn3c2NCc2ccccc2)cc1 (stereo unspecified)	-74	·	·	·	0.75	4	1.0&6.9
COc1ccc(C)cc1NC(=O)c1nc2nc(C)cc(C)n2n1	-73	-3%	·	·	0.71	-15	2.1
CCOC(=O)N1CCN(C(=O)C(C)c2ccc([N+](=O)[O-])cc2)CC1 (stereo unspecified)	4.4	8%	13	1.1	0.62	-5	0.5
CCC(C)c1ccccc1NC(=O)CN(C)CCOc1ccc(Cl)cc1 (stereo unspecified)	4.2	-5%	-4.7	-0.2	0.65	10	2.3
C=CCOC(=O)Nc1c(C(=O)OC)[nH]c2ccccc12	-2.9	-5%	-9.4	0.3	0.76	7	1.1
Cc1ccc(CNC(=O)CCOc2ccc(C(C)(C)C)cc2)cc1	1.1	2%	1.3	0.7	0.66	4	1.1
CCCn1nnc(NC(=O)c2ccc3ccccc3c2)n1	-1.6	·	-3.0	-1.4	0.68	0	2.8
Cn1c(=O)n(C)c2cc([N+](=O)[O-])c(N3CCN(C(=O)c4ccccc4Cl)CC3)cc21	5.3	6%	-3.9	0.2	0.68	-1	1.4
O=C(COC(=O)Cc1c(Cl)cccc1Cl)NCCC1=CCCCC1	-2.1	12%	0.5	0.3	0.62	3	-4.0
COC(=O)c1c(C)oc2ccc(N(C(=O)c3ccncc3)S(=O)(=O)c3ccc(C)cc3)cc12	-1.6	-6%	-2.2	0.8	0.73	14	-1.1
O=C(Nc1ccc2ccccc2c1)c1cccc([N+](=O)[O-])c1	1.3	7%	0.5	-2.5	0.65	7	-1.7
CCOCCC(=O)Nc1cc(Cl)ccc1OC	1.4	0%	5.9	-0.7	0.64	-7	0.0
O=C(Nc1ccccc1C(=O)O)c1cc(S(=O)(=O)Nc2cccc(F)c2)ccc1Cl	0.7	·	-5.9	0.1	0.67	-3	-1.4
COc1ccc(C)cc1NC(=O)CN1C(=O)COc2ccc(C)cc21	2.1	·	0.2	0.1	0.62	5	2.9
O=C(NCc1cccnc1)Nc1ccc(F)cc1F	1.2	?	-5.0	-0.8	0.66	5	-2.7
CCc1ccc(NC(=O)Cn2ncn3c(cc4ccccc43)c2=O)cc1	-12	-1%	6.0	1.3	0.62	2	4.5
O=C(NCCN1CCOCC1)c1cc2sccc2n1Cc1ccc(Cl)cc1	4.8	6%	·	·	0.69	0	2.2
Cc1cccc(Cn2cnc3c(nnn3Cc3ccc(F)cc3)c2=O)c1	3.5	23%	2.0	0.4	0.65	3	-2.2
O=C(Nc1ccccc1F)c1coc(=O)c(Br)c1	-2.0	7.1µM*	-2.5	-2.0	0.59	-2	-0.8
CS(=O)(=O)N1CCCC(C(=O)Nc2ccccc2Cl)C1 (stereo unspecified)	2.2	-6%	3.8	-0.9	0.68	-1	1.5
COC(=O)c1cc(C(=O)OC)[nH]n1	2.5	7%	-4.8	0.1	0.65	-7	0.0
CC1(c2nnc(-c3ccccc3)o2)CC(c2ccc([N+](=O)[O-])cc2)=NO1 (stereo unspecified)	2.8	·	-2.5	0.5	0.69	-13	5.2
CCc1ccc(NC(=O)C(=O)NNC(=O)COc2cccc(OC)c2)cc1	1.4	7%	-3.6	0.1	0.68	-1	0.8
COCCN1Cc2cccc(C(=O)NCc3cccs3)c2C1=O	0.5	16%	2.9	0.9	0.64	-9	-4.7
CCn1c2ccccc2n2c(=O)c(=O)n(CC(=O)Nc3ccc(C(C)C)cc3)nc12	-318	·	2.5	0.0	0.69	2	0.5
COc1ccc(/C=C/C(=O)NCC(=O)N2CCC(N(C)CCN3CCOCC3)CC2)cc1OC	-13	-2%	2.3	-0.2	0.66	4	-0.3
N#Cc1ccccc1NC(=O)c1cccc(COc2ccc(Cl)cc2Cl)c1	2.3	-2%	6.3	0.3	0.68	5	-1.2
CC1(C)CCc2c([nH]c3ccccc3c2=O)O1	4.9	28%	7.3	-0.5	0.73	1	0.7
Oc1ccc(C=NN=C2c3ccccc3-c3ccccc32)c(O)c1	·	-11%	·	·	·	-23	34
COc1ccc(/C=N/NC(=O)c2c([N+](=O)[O-])c(C)nn2C)cc1	·	-1%	-2.4	0.2	·	16	-1.0
COc1ccccc1NS(=O)(=O)c1cc(NC(=O)Nc2cccc(C)c2)ccc1N1CCCCC1	1.1	-6%	5.8	0.7	0.7	6	-2.2
